# Assay outcomes deposited in PubChem by several laboratories.
# Bfl-1 A1 inh – inhibitors of the anti-apoptotic protein A1, read as caspase activation. MEF A1-2A-BIM cells, Caspase-Glo 3/7 luminescence, 3 h; percent of clofoctol response, vehicle zero. caspase activation, % (concentration not given with the values). hit rate 0.066% among 330,000. AID 2462;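 active means over half of replicate activation scores above 10%, or exactly half above 10 with the replicate mean above 10; inconclusive means replicate mean below 10 yet half the replicates above 10; inactive means over half of replicates below 10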;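 further: wells of about 30 µL received 50 nL stock; many hits fall short of the cut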
# B2AR ag – human beta-2 adrenergic receptor agonism by FAP. P07550. Am2.2-beta2AR cells, FAP receptor internalization, flow cytometry; reference of the scale not given here. response, % (test concentration not listed). hit rate 0.43% among 340,000. AID 504454;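 active means response above a set limit, near 3 SD of response in nonfluorescent compounds, cut at about 42% in these data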;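 further: stock transfer was 100 nL into about 11 µL; a reference agonist was the positive control; negative values mostly stem from fluorescent compounds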
# Target sequence (P07550 whole entry, looked up): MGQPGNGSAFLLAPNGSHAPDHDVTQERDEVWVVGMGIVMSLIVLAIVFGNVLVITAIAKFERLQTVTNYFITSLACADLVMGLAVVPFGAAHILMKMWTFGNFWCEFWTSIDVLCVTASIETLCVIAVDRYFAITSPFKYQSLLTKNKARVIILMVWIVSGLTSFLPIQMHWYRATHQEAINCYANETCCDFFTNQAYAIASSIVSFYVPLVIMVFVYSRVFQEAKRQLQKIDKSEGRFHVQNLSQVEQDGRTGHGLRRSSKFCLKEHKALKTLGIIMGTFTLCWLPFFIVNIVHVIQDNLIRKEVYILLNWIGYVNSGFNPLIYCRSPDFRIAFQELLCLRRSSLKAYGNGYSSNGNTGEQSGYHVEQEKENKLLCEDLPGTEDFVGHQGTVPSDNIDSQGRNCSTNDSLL
# Ecoli growth – blocks Escherichia coli growth; OD600, 23 h; active compounds read low; OD600 absorbance (no concentration beside the values); hit rate 0.21% among 330,000;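 active means OD600 absorbance below the run mean of sample wells minus 3.6 SD, in any replicate, cut at about 0.56 in these data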;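 further: stock transfer was 300 nL into about 60 µL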
# UCH37 inh – inhibitors of human deubiquitinating enzyme UCH37; Q9Y5K5; purified proteasome/UCH37, Ub-AMC cleavage fluorescence; inhibition, % (test concentration not listed); hit rate 0.33% among 330,000; AID 588478;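 active means mean of two replicates above 20%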;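 further: 0% = compound-free wells with enzyme and 100% = wells lacking proteasome; stock transfer was 100 nL into about 20 µL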
#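 Material: human UCH37 enzyme supplied as purified proteasome complex. Measure: % inhibition of Ub-AMC cleavage fluorescence. Medium: pH 7.4 Tris-HCl (50 mM) with ovalbumin, ATP-MgCl2, DTT. Times: 30 min preincubation with enzyme, 25 min cleavage at room temperature. Detection: AMC fluorescence intensity at 355/460 nm.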
# LANA-H2A inh – blocks KSHV LANA binding to histone H2A/H2B. cell-free LANA-H2A/H2B peptide, fluorescence polarization. inhibition, % (test concentration not listed). hit rate 0.6% among 320,000. AID 2629; in the data active means inhibition mostly above about 10%, no sharp cut-off; inactive means mostly below about 6.7%;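 further: stock transfer was 7.5 nL into about 10 µL; 0% = median of vehicle wells and 100% = median of positive control wells; one replicate is shown; the record names a cut of 25% in any replicate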
# Vif TR-FRET – HIV-1 Vif–A3G interaction blockers – biochemical, TR-FRET, GST-Vif 1-94, biotin-A3G peptide, dose response retest, primary screen (AID 1117319) | TR-FRET GST-Vif / biotin-A3G peptide binding; higher % means a stronger effect; test concentration not given here; strong numbers were not always called active | inhibition, %, or IC50 in µM where a hit was titrated | hit rate 0.57% among 260,000;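 active means above the screen mean plus three standard deviations and confirmed in dose response; inconclusive means results disagree or hit not tested in dose response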;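 further: Vif residues 1-94 fused to GST binding biotinylated APOBEC3G peptide 110-148; 0% = full assay without inhibitor and 100% = GST in place of GST-Vif; retest series ran down from 100 µM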
# HNF4A DNA FP – change in binding of human HNF4 alpha to DNA | hit rate 0.3% among 360,000 | activity change, % at 10 µM | P41235 | HNF4a-FITC DNA binding, fluorescence polarization, 1 h | AID 1224865; in the data active means activity change above about 30%, passing the limit was not always enough;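 further: controls were the assay level and a saturating level of protein; the project sought stronger binding though the title names inhibitors; some compounds called inactive have numbers as strong as hits; positive values seem to mean higher polarization but the record does not say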
# Target sequence (P41235 whole entry, looked up): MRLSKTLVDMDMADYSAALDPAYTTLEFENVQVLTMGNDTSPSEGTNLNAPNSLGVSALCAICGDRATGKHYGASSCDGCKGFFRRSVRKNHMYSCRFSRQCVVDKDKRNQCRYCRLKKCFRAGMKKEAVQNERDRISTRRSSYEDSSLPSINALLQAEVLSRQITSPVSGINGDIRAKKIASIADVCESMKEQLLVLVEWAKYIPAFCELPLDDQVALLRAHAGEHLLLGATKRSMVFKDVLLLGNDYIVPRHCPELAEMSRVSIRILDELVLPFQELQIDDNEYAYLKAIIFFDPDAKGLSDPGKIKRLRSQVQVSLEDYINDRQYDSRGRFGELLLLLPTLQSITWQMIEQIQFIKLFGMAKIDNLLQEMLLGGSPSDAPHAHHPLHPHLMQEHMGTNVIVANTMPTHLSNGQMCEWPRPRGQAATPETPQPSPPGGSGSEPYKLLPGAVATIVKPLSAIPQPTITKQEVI
# Starred values were filed as active, the others as inactive; i = inactive; ? = inconclusive; · = not tested or not shown. Not a hit list, and some 2.1% of all compounds hit somewhere here.
SMILES,Bfl-1 A1 inh,B2AR ag,Ecoli growth,UCH37 inh,LANA-H2A inh,Vif TR-FRET,HNF4A DNA FP
COc1ccc(S(=O)(=O)N2CCCCCC2)cc1C(=O)OC(C)C(N)=O (stereo not given),-1.2,-5,0.66,-0.3,9.1,·,6.4
CCn1c2ccccc2c2cc(NC(=O)COC(=O)c3cccc(S(=O)(=O)NC)c3)ccc21,-0.5,12,0.73,0.6,2.9,-10%,3.0
Cc1ccccc1OCc1nnc(SCC(=O)N2CCc3ccccc32)n1C,0.0,-17,0.7,2.4,3.1,24%,-3.7
COC(=O)C(Cc1ccc(O)cc1)NC(=O)CCOc1ccc(OC)cc1 (stereo not given),0.1,-8,0.65,2.0,-0.2,·,-3.7
CCOC(=O)c1c(CSC(=N)N)n(-c2ccc(C)cc2)c2cc(Br)c(OC(C)=O)cc12,0.1,45*,0.65,11,1.3,-1%,0.2
CCC(CC)C(=O)c1c[nH]c(C(=O)NCC2CCCO2)c1 (stereo not given),0.4,-1,0.75,2.6,-1.0,1%,1.5
O=C(Nc1ccccc1)N(CCN1CCOCC1)Cc1ccccc1F,-0.4,0,0.59,3.9,3.6,-5%,3.5
Cc1ccc(CN=C(N)Nc2nc(C)cc(C)n2)cc1,1.8,9,0.67,5.5,-6.0,-8%,1.5
CCOC(=O)N1CCN(S(=O)(=O)N2CCCC(C(=O)NCCc3ccc(Cl)cc3)C2)CC1 (stereo not given),0.3,-3,0.64,5.1,0.7,0%,-3.6
Cc1ccc(/C=C(/C#N)c2nc(CCN3C(=O)c4ccccc4C3=O)cs2)cc1,0.3,-3,0.72,-72,-5.7,-1%,0.4
COC(=O)c1ccc(NC(=O)NS(=O)(=O)c2ccc(C)cc2)cc1,0.7,5,0.75,3.5,0.0,0%,1.4
CCn1nc(C(=O)NNC(=O)CCOc2cc(C)ccc2C)c2ccccc2c1=O,-0.3,-5,0.7,1.9,-3.8,·,-0.8
O=C(CC1CCCCC1)NC1CCCC1,-0.4,-3,0.69,3.8,-3.5,-8%,1.6
COC(=O)CC1(C(=O)OC)Oc2ccc(Br)cc2C(=O)N1c1cccc(Cl)c1Cl (stereo not given),-0.9,-11,0.65,2.6,-2.2,-6%,0.7
O/N=C/c1ccccc1OCc1ccccc1F,1.0,8,·,·,9.9,-3%,0.9
CC(C)N(C(=O)[C@H]1C[C@H](CC(=O)NCc2ccco2)C(=O)N2CCc3c([nH]c4cc(CCC(=O)N(C)C)ccc34)[C@]12C)C(C)C,·,5,0.72,3.1,·,-4%,-0.3
CN(C(=O)c1nn(C)c2c1CSc1ccccc1-2)c1ccccc1Cl,0.4,13,0.66,4.0,1.5,·,1.8
CC(C)(O)CCC(C)(C)O,-0.5,6,0.67,-1.7,-1.5,·,-2.1
CCCOc1cc(C)nc(-c2ccccc2O)n1,1.1,2,0.7,0.2,-4.6,3%,-4.0
Cc1ccc(SCCC(=O)NNC(=O)c2ccccc2F)cc1,-2.3,3,0.66,2.9,1.5,0%,-1.9
COC(=O)c1cccc(NC(=S)NCCC2=CCCCC2)c1,-0.4,18,0.72,-2.2,0.1,1%,-3.2
Cc1ccc(N(CC(=O)N/N=C/c2cccs2)S(C)(=O)=O)cc1Cl,0.3,-2,·,·,-1.0,-2%,-1.9
COc1ccc(Cl)cc1C(=O)NNC(=O)c1nn(C)c(=O)c2ccccc12,1.5,7,0.72,4.8,-2.5,·,2.6
CCn1c(COc2ccc3c(c2)OCO3)nnc1SCC(=O)c1ccc(Cl)cc1,0.7,-3,0.75,2.5,3.8,78µM*,-0.3
OC(CNCc1ccccc1)Cn1ccc2ccccc21 (stereo not given),-1.1,17,0.66,-1.2,12,7%,0.0
O=C(NCC(=O)N(Cc1ccc(F)cc1)C(C(=O)NCC1CCCO1)c1ccccc1)c1ccco1 (stereo not given),-0.3,-9,0.63,0.4,-6.8,6%,8.1
CC(C)(C)c1cc(C(=O)O)c(CN2CCCCC2)o1,1.1,-7,0.7,4.3,-2.6,?,1.3
COc1ccc(Cn2c(=S)[nH]c3ccsc3c2=O)cc1,0.7,2,·,2.6,-1.5,-2%,-1.4
COc1ccc(-c2nnc3ccc(SCC(=O)NCC4CCCO4)nn23)cc1 (stereo not given),-0.8,-10,0.65,2.0,-0.1,-3%,-0.7
COc1ccc(Nc2nc3ccccc3nc2NS(=O)(=O)c2cccs2)c(OC)c1,-0.5,11,0.7,7.3,1.9,-4%,-4.1
COc1ccc(Br)cc1CNc1ccccc1,-0.5,4,0.7,1.2,0.4,·,-0.3
Cc1ccc(/C=N/NC(=O)c2ccc(Cn3cc([N+](=O)[O-])cn3)o2)cc1,-1.7,-5,·,·,-12,-4%,-4.3
CCn1cc(C(=O)N[C@@H](C)C(=O)NCCCn2ccnc2)c(=O)c2cc3c(cc21)OCO3,-0.2,8,0.63,-2.8,-0.3,-4%,-0.3
CCOC(=O)C1CCCN(c2nc3ccccc3nc2C(C#N)C(=O)OC(C)COC)C1 (stereo not given),0.4,9,0.71,-3.1,-0.4,·,1.4
O=C(CN1CCCCC1)N1c2ccccc2CCc2ccccc21,-0.3,-1,0.67,-1.0,-2.7,4%,-1.4
COc1ccccc1CC(=O)Nc1nc(-c2ccc(F)c(F)c2)cs1,0.8,0,0.65,3.3,0.4,·,-0.2
O=C(CCCCCN1C(=O)c2ccccc2C1=O)Nc1ccc(C(=O)O)cc1,0.4,-10,0.67,1.4,2.1,-2%,3.1
CC(C)N(Cc1ccccc1)C(=O)COC(=O)CCC(=O)c1ccc(F)cc1,·,2,0.71,0.5,·,·,15
COCCNC(=O)c1nc2ccccc2s1,0.1,4,0.67,5.0,0.1,3%,-2.0
COc1ccc(C(=O)N[C@H](C(=O)Nc2ccc(S(=O)(=O)N3CCOCC3)cc2)C(C)C)cc1,0.9,2,0.71,2.5,0.4,·,-0.3
CN(c1ccccc1)c1ccc(/C=N/NC(=O)CC#N)cc1,0.3,-6,·,·,-1.1,-7%,5.5
CCc1ccc(Nc2nnc(SCc3cc(=O)n4ccsc4n3)s2)cc1,-0.3,7,0.63,6.8,3.2,6%,-1.7
O=c1cc(N2CCOCC2)[nH]c(=O)n1Cc1ccc(F)cc1,0.4,-6,0.76,0.6,5.6,-5%,-1.0
COCCN1Cc2cccc(C(=O)NCc3ccc4c(c3)OCO4)c2C1=O,-0.2,12,0.69,0.6,-0.7,?,-1.8
COC(=O)c1ccc(S(=O)(=O)N2C3CCC2CC(NC(=O)C2CC2)C3)cc1 (stereo not given),0.2,4,0.71,3.0,0.8,12%,0.9
Cc1ccc(NC(=O)C(c2ccccc2)N2CCN(CC(=O)NC3CC3)CC2)cc1 (stereo not given),-0.2,3,0.69,5.7,-0.9,6%,-2.9
CCS(=O)(=O)Nc1cccc(C2=NN(S(=O)(=O)CC)C(c3ccccc3)C2)c1 (stereo not given),0.3,-2,0.68,0.0,-2.2,30%,55*
Cc1ccccc1C(=O)N1CCN(c2ccc(NC(=O)c3ccc4c(c3)OCCO4)cc2)CC1,-1.5,33,0.7,4.3,2.8,-6%,3.2
O=C(N1CCCCCC1)N1CCN(S(=O)(=O)N2CCOCC2)CC1,0.7,-3,0.73,1.0,-0.5,5%,3.1
COC(=O)C1CCN(C(=O)c2ccc3nccnc3c2)CC1,0.3,2,0.64,4.6,-14,·,4.4
Cc1cccc(C)c1-n1nnnc1S(=O)(=O)Cc1ccccc1Cl,0.2,4,0.7,2.0,3.4,15%,-5.4
CCSC1=NCN(CCCC(=O)O)CN1,-0.1,2,0.71,4.0,4.6,1%,1.9
Cc1ccc(CNC(=O)COC(=O)c2cccc(S(=O)(=O)N3CCCCC3)c2)cc1,-1.0,7,0.7,0.9,-7.5,-7%,2.2
c1ccc(CNc2nc3ccccc3[nH]2)cc1,-4.2,-9,0.71,-1.5,0.4,5%,0.0
CC1CCCC(NC(=O)c2ccc3c(c2)OCCO3)C1C (stereo not given),-2.1,-6,0.72,1.3,-1.5,-3%,-2.5
CCNC(=O)N1CCCC(C(=O)c2ccc(OC)c(OC)c2)C1 (stereo not given),1.6,10,0.67,3.6,2.7,·,0.6
C=CCn1c(N2CCCC2)nc2c1c(=O)n(C)c(=O)n2C,-0.1,3,0.65,5.0,5.1,-9%,2.7
CCOc1ccccc1C(=O)NCC(=O)NC(C)c1ccc(-n2ccnc2)cc1 (stereo not given),-1.4,-3,0.67,1.7,1.2,-10%,1.6
O=C(CC12CC3CC(CC(Br)(C3)C1)C2)Nc1nncs1,1.3,-1,0.68,0.9,0.4,·,-4.9
COc1ccc2c3c(cccc13)C(=O)N(O)C2=O,0.0,8,0.38*,-65,-2.3,?,-8.9

# Next structures:
SMILES,Bfl-1 A1 inh,B2AR ag,Ecoli growth,UCH37 inh,LANA-H2A inh,Vif TR-FRET,HNF4A DNA FP
O=C(COC(=O)/C=C/c1ccc(C(F)(F)F)cc1)NC1CCS(=O)(=O)C1 (stereo not given),0.0,1,0.67,4.2,0.7,2%,-1.2
O=C(Nc1nnc(-c2ccccc2SCc2ccccc2F)s1)Nc1ccccc1F,-0.4,-8,0.76,5.7,-2.5,?,1.3
COC(=O)c1ccc(NC(=O)Nc2ccc(F)cc2F)cc1,-14,0,0.71,-0.2,-1.8,-7%,4.1
CSc1cccc(NC(=O)COc2ccccc2)c1,-0.3,3,0.71,0.2,-2.4,8%,-1.1
C=CCOc1ccc(CNn2cn[nH]c2=S)cc1OC,-0.3,2,0.66,2.1,-4.5,-4%,2.3
O=C(NCCn1cc(SCc2ccccc2F)c2ccccc21)c1c(F)cccc1F,0.0,4,0.77,3.2,-0.2,24%,-0.1
Cn1c(=O)c2[nH]c(-c3ccccc3Cl)c(O)c2n(C)c1=O,-0.3,-6,0.69,0.6,·,-6%,0.3
CC(=O)Nc1cccc(OCc2ccc(F)cc2)c1,1.3,-3,0.64,-0.4,-7.9,6%,3.9
C[C@@H]1CN([C@@H](C)CO)C(=O)c2cc(NC(=O)Nc3ccccc3)ccc2O[C@H]1CN(C)C(=O)Nc1cccc2ccccc12,-0.1,-7,0.8,5.6,4.4,·,0.6
Cc1ccccc1NC(=S)NC12CN3CN(CN(C3)C1)C2,-0.1,2,0.69,3.1,0.5,20%,0.3
CCCCN(C)CCCNC(=O)c1cc(-c2cccs2)nc2ccccc12,0.9,-5,0.7,i,-1.8,-2%,-5.1

# Gathered by group: the compounds so far with a furan ring, fused or not
SMILES,Bfl-1 A1 inh,B2AR ag,Ecoli growth,UCH37 inh,LANA-H2A inh,Vif TR-FRET,HNF4A DNA FP
CC(C)N(C(=O)[C@H]1C[C@H](CC(=O)NCc2ccco2)C(=O)N2CCc3c([nH]c4cc(CCC(=O)N(C)C)ccc34)[C@]12C)C(C)C,·,5,0.72,3.1,·,-4%,-0.3
O=C(NCC(=O)N(Cc1ccc(F)cc1)C(C(=O)NCC1CCCO1)c1ccccc1)c1ccco1 (stereo not given),-0.3,-9,0.63,0.4,-6.8,6%,8.1
CC(C)(C)c1cc(C(=O)O)c(CN2CCCCC2)o1,1.1,-7,0.7,4.3,-2.6,?,1.3
Cc1ccc(/C=N/NC(=O)c2ccc(Cn3cc([N+](=O)[O-])cn3)o2)cc1,-1.7,-5,·,·,-12,-4%,-4.3
